# FGF22 binding = FGF22 (human) thermal shift binding; calls only at 9.99 µM; hit rate 1.5% among 340,000; recombinant FGF22 thermal shift, SYPRO orange fluorescence; percent of sucrose octasulfate shift, DMSO zero; Q9HCT0;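 active = melting point raised past a set limit in the mean and every replicate; three in four hits are not shown here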
# Target sequence (Q9HCT0 whole entry, looked up): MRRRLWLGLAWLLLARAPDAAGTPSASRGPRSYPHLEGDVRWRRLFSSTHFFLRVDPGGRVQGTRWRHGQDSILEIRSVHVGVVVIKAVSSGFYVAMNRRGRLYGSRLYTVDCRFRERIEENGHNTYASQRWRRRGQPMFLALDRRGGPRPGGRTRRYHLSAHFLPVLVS
# Ecoli rRNA inh = inhibitors of bacterial rRNA selective over humanized ribosomes. GFP signal change (wild-type ribosome), % (concentration not given with the values). E. coli WT GFP vs humanized-ribosome RFP mutants, fluorescence, 24 h; hits give low values; DMSO median 0, no signal -100. hit rate 1.6% among 350,000. AID 720706;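 active = significant combined selectivity score with lowered wild-type GFP, culture density cut under 30%, mutant RFP and density less affected; inactive = any of these conditions unmet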; also: one replicate is shown; some compounds called inactive have numbers as strong as hits
# MLL AF4-AF9 inh = MLL-AF4/AF9 protein interaction inhibition. P42568. AlphaScreen, biotin-AF4 peptide binding to FLAG-AF9. inhibition, % at 10 µM. hit rate 0.47% among 350,000;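 active = every replicate reaching a set inhibition limit, whatever the replicate mean, cut at about 25% in these data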;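 also: 0% = plate neutral control median and 100% = total signal loss; the record names both 10 and 1 µM as test concentration; the first replicate is given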
# Target sequence (P42568 whole entry, looked up): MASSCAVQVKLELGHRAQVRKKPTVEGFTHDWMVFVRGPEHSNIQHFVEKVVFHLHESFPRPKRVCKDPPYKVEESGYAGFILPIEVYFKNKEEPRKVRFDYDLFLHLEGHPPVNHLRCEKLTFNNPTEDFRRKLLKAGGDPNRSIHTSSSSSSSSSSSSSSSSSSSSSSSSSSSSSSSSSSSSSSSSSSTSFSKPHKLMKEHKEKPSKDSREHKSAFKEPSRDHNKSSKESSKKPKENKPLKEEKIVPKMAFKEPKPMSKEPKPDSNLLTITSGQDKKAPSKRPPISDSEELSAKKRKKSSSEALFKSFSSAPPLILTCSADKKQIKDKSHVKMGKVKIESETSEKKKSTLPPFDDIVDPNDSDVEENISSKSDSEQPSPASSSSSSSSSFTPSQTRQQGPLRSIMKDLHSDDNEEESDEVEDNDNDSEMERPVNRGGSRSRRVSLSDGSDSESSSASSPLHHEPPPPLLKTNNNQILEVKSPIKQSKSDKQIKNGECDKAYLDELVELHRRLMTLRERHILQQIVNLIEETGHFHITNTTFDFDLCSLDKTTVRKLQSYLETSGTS
# Ecoli rRNA inh OD600 = recorded beside Ecoli rRNA inh, whose call it bears; OD600 change, %; measured here: OD600 growth;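 optical density of the mix in the first replicate; 0 = DMSO median and -100 = no signal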
# Ecoli rRNA inh RFP = further read-out of Ecoli rRNA inh, marked with its call; RFP signal change, %; measured here: RFP humanized mutant strains;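 first replicate; 0 = DMSO median and -100 = no signal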
# * marks the source's active call; other numbers are inactive results; i = inactive; & = joins results of further samples. Some of the compounds tested. The share of hits here may be higher or lower than overall.
molecule,FGF22 binding,Ecoli rRNA inh,Ecoli rRNA inh OD600,Ecoli rRNA inh RFP,MLL AF4-AF9 inh
C[C@H](CO)N1C[C@H](C)[C@H](CN(C)Cc2ccc(-c3ccccc3)cc2)Oc2ccc(NC(=O)C3CCCCC3)cc2C1=O,i,0,-6,2.5,2.3
CN1C(=O)c2cc(NC(=O)c3cccc(C(F)(F)F)c3)ccc2OC[C@@H]2O[C@H](CC(=O)O)CC[C@@H]21,i,-1,1,-1.1,0.2
COc1cccc(S(=O)(=O)N[C@H]2CC[C@H](CC(=O)NC3Cc4ccccc4C3)O[C@@H]2CO)c1,i,-2,4,0.5,-0.7
CCCN(C)C[C@H]1OCCCC[C@H](C)Oc2ccc(NS(=O)(=O)c3ccc(F)cc3)cc2C(=O)N([C@@H](C)CO)C[C@H]1C,i,1,2,-1.0,-3.8
CC(C)C#Cc1ccc2c(c1)O[C@@H](CN(C)C)[C@H](C)CN([C@@H](C)CO)S2(=O)=O,i,-2,0,0.5,4.9
O=C(C[C@@H]1C[C@H]2c3cc(NS(=O)(=O)c4ccc(F)cc4)ccc3O[C@H]2[C@@H](CO)O1)NCc1cccc(F)c1,i,1,-23,1.3,0.2
CC(C)NC(=O)N1C[C@@H]2[C@H](c3ccccc31)[C@@H](CO)N2Cc1ccc(Cl)cc1,i,-1,-5,0.6,-1.2
O=C(C[C@@H]1C[C@@H]2c3cc(NC(=O)Nc4ccc(C(F)(F)F)cc4)ccc3O[C@@H]2[C@H](CO)O1)NCc1ccccn1,i,-8,-14,7.1,-1.4
Cc1noc(C)c1S(=O)(=O)Nc1ccc2c(c1)C(=O)N([C@H](C)CO)C[C@@H](C)[C@H](CN(C)S(=O)(=O)c1ccc(Cl)cc1)O2,i,-2,1,-3.8,-13
O=C(Nc1cccc(Cl)c1)N[C@@H]1CC[C@H](CCn2cc(Cc3ccccc3)nn2)O[C@@H]1CO,i,-14,-33,5.8,1.6
C[C@H]1CN([C@@H](C)CO)C(=O)c2cccc(NC(=O)c3ccncc3)c2O[C@@H]1CN(C)C,i,3,15,-0.9,-2.3
Cc1ccc(NC(=O)COC(=O)Cc2c[nH]c3ccccc23)cc1C,i,-1,-4,0.5,-0.2
Cc1ccc(S(=O)(=O)N(C)C[C@@H]2Oc3ccc(NC(=O)CCCN(C)C)cc3C(=O)N([C@H](C)CO)C[C@H]2C)cc1,i,-1,4,1.0,1.1
COc1ccc(NS(=O)(=O)c2cc(NC(=O)CCNC(=O)c3ccco3)ccc2OC)cc1,i,-1,1,0.1,25*
C[C@H]1CN([C@@H](C)CO)S(=O)(=O)c2ccc(-c3cncnc3)cc2O[C@@H]1CN(C)C(=O)CC1CC1,i,2,-5,-1.4,0.9
C[C@@H]1CN([C@@H](C)CO)C(=O)c2cc(NS(=O)(=O)c3ccc(F)cc3)ccc2O[C@@H]1CN(C)Cc1ccc2c(c1)OCO2,i,0,6,-1.7,1.3
COc1ccccc1NC(=O)N(C)C[C@H]1OCc2cnnn2CCCC(=O)N([C@H](C)CO)C[C@@H]1C,i,9&-1,9&0,-2.2&-0.6,-3.3&-1.2&-1.7
C[C@H](CO)N1C[C@H](C)[C@H](CN(C)C(=O)c2cccnc2)Oc2ncc(-c3ccccc3)cc2C1=O,i,1,-4,-0.6,-1.6
COc1ccc(CN(C)C[C@H]2Oc3ccc(NS(=O)(=O)c4ccc(Cl)cc4)cc3C(=O)N([C@H](C)CO)C[C@H]2C)cc1,i,-2,-3,2.6,-9.3
C[C@H](CO)N1C[C@H](C)[C@H](CN(C)Cc2ccc3c(c2)OCO3)Oc2c(NC(=O)Nc3ccc4c(c3)OCO4)cccc2C1=O,i,-1,-1,0.8,13
COC(=O)[C@H]1C[C@H](OC(=O)NCC2CCCCC2)[C@@]2(O)CN(S(=O)(=O)c3ccc(C)cc3)CC2[C@H]1C(=O)OC (stereo not given in full),i,-12,-5,3.0,-1.6
CCCCCCCCNS(=O)(=O)CCNCc1ccccc1OC,i,-7,-41,22,-3.6
CO[C@H]1CN(C)C(=O)c2cc(NC(=O)c3nc4ccccc4s3)ccc2OC[C@@H](C)NC[C@H]1C,i,0,-3,0.9,-1.2
CCCC#Cc1cnc2c(c1)C(=O)N([C@H](C)CO)C[C@H](C)[C@H](CN(C)S(=O)(=O)c1ccccc1)O2,i,2,3,-0.2,-1.5
C[C@@H]1CN([C@@H](C)CO)C(=O)c2cc(NC(=O)NC3CCCCC3)ccc2O[C@H]1CN(C)C(=O)NC1CCCCC1,i,-5,1,0.7,-2.3
Cc1cccc(NC(=O)Nc2ccc3c(c2)C(=O)N(C)[C@H]2CC[C@@H](CC(=O)O)O[C@@H]2CO3)c1,i,2,-2,-2.6,-1.3
N#Cc1ccc(C(=O)NCC2CCN(C(=O)C(=O)c3cccs3)CC2)cc1,i,3,8,-1.8,3.6
C[C@@H]1CCCCO[C@H](CN(C)Cc2ccc(Cl)c(Cl)c2)[C@@H](C)CN([C@H](C)CO)C(=O)c2cc(NS(C)(=O)=O)ccc2O1,i,-3,5,0.2,-0.5
CCOC(=O)[C@]12CCCC=C1N(Cc1ccc(Cl)cc1Cl)C(=O)[C@H](CC(=O)N1CCSCC1)C2,i,10,6,-0.1,1.5
C[C@@H]1CCCCO[C@@H](CN(C)C(=O)Cc2ccccc2)[C@H](C)CN([C@@H](C)CO)C(=O)c2cc(NC(=O)c3ccncc3)ccc2O1,i,-2,-3,-3.3,-2.2
C[C@H](CO)N1C[C@H](C)[C@@H](CN(C)Cc2ccc(Oc3ccccc3)cc2)Oc2ccc(N(C)C)cc2CC1=O,i,-60,-74,-16,72*
C[C@H](CO)N1C[C@H](C)[C@@H](CN(C)Cc2ccc(-c3ccccc3)cc2)Oc2ccc(NC(=O)CCCCCC(=O)Nc3ccccc3N)cc2CC1=O,i,1,-7,18,-0.2

# The list goes on; the last three above are carried over.
Compound | FGF22 binding | Ecoli rRNA inh | Ecoli rRNA inh OD600 | Ecoli rRNA inh RFP | MLL AF4-AF9 inh
C[C@@H]1CCCCO[C@@H](CN(C)C(=O)Cc2ccccc2)[C@H](C)CN([C@@H](C)CO)C(=O)c2cc(NC(=O)c3ccncc3)ccc2O1 | i | -2 | -3 | -3.3 | -2.2
C[C@H](CO)N1C[C@H](C)[C@@H](CN(C)Cc2ccc(Oc3ccccc3)cc2)Oc2ccc(N(C)C)cc2CC1=O | i | -60 | -74 | -16 | 72*
C[C@H](CO)N1C[C@H](C)[C@@H](CN(C)Cc2ccc(-c3ccccc3)cc2)Oc2ccc(NC(=O)CCCCCC(=O)Nc3ccccc3N)cc2CC1=O | i | 1 | -7 | 18 | -0.2
CS(=O)(=O)Nc1ccc2c(c1)[C@H]1C[C@H](CC(=O)NC3CCCCC3)O[C@H](CO)[C@H]1O2 | i | 1 | 4 | -2.0 | -4.3
Cc1ccc(NC(=O)Nc2ccc3c(c2)C(=O)N(C)[C@H]2CC[C@H](CC(=O)NCC(F)(F)F)O[C@H]2CO3)cc1 | i | 0 | -5 | 0.0 | 2.5
CC(OC(=O)c1cccc(S(=O)(=O)N2CCOCC2)c1)C(=O)NCC1CCCCC1 (stereo not given) | i | 3 | 12 | 2.4 | -1.5
CN(C)[C@H]1CCN([C@H]2CS(=O)(=O)N[C@@H]2COCc2ccccc2)C1 | i | 10 | 13 | 2.2 | 1.8
COCC#Cc1cnc2c(c1)C(=O)N([C@H](C)CO)C[C@H](C)[C@@H](CN(C)S(=O)(=O)c1cn(C)cn1)O2 | i | 3 | 17 | -2.6 | -0.6
CCc1nc2ccc(C(=O)N3CCN(C(C)=O)CC3)cn2c1N(C)C(=O)c1cccc(OC)c1 | i | 8 | 20 | 2.0 | -6.3
CO[C@@H]1CN(C)C(=O)c2cc(NC(C)=O)ccc2OC[C@H](C)N(CCc2ccccc2)C[C@H]1C | i | -2 | 0 | 1.2 | 1.5
C[C@@H]1[C@H]2CCCC[C@H]2CN(C(=O)OC(C)(C)C)[C@@H]1c1cn(Cc2ccccc2)c2ccc(F)cc12 | i | 22 | 16 | 5.3 | -3.6
CCc1nc2ccc(C(=O)NCCN3CCNC3=O)cn2c1N(CCC(C)C)CCN(C)C | i | 6 | 14 | 3.7 | -1.2
C[C@H]1CN([C@@H](C)CO)C(=O)c2cccc(NC(=O)C3CC3)c2O[C@H]1CN(C)Cc1ccc2c(c1)OCO2 | i | 5 | 8 | 0.1 | -3.3
CCCC(=O)Nc1ccc2c(c1)C(=O)N(C)[C@@H]1CC[C@H](CC(=O)NCc3ccccc3Cl)O[C@H]1CO2 | i | 4 | 0 | -0.8 | -0.6
C[C@@H]1CN([C@H](C)CO)C(=O)Cc2cc(NS(=O)(=O)c3ccccc3)ccc2O[C@@H]1CN(C)S(=O)(=O)c1cn(C)cn1 | i | 3 | 5 | -0.9 | -0.5
O=C(C[C@H]1CC[C@@H]2[C@H](COC[C@@H](O)CN2C(=O)Nc2ccc(F)cc2)O1)NCc1ccncn1 | i | 4 | -1 | 3.3 | -2.1
Cc1noc(C)c1-c1ccc(C(=O)Nc2ccc(C(C)C)cc2)c2occc12 | i | -6 | 7 | 0.0 | -3.3
CC(C)Nc1ncnc2c1ncn2[C@H]1CN(Cc2ccc(F)cc2)C[C@@H](CO)O1 | i | 3 | 1 | 5.4 | -3.6
Cn1cnc(S(=O)(=O)N[C@@H]2CC[C@@H](CC(=O)Nc3ccccc3)O[C@H]2CO)c1 | i | 2 | 6 | 1.8 | -0.6
Cc1noc(C)c1NC(=O)N[C@H]1C=C[C@H](CC(=O)N2CCCCC2)O[C@H]1CO | i | 1 | -7 | -0.2 | 0.5
O=C(COC(=O)c1cccnc1)NC1CCCc2ccccc21 (stereo not given) | i | 20 | 16 | 4.1 | -1.1
O=C(N[C@H](CO)c1ccccc1)[C@H]1O[C@@H](n2ccc(=O)[nH]c2=O)[C@H](O)[C@@H]1O | i | 22 | 10 | 3.7 | 0.1
C[C@H]1CN([C@@H](C)CO)C(=O)Cc2cc(NC(=O)Cn3cnnn3)ccc2O[C@@H]1CN(C)Cc1ccc(Cl)c(Cl)c1 | i | -6 | -22 | 6.9 | 2.2
CCCCn1cnc2c(SCc3ccc([N+](=O)[O-])cc3)nc(N)nc21 | i | 3 | 12 | 4.7 | -1.1
CO[C@H]1CN(C)C(=O)c2cc(NC(=O)c3ccccc3F)ccc2OC[C@@H](C)N(C(=O)c2ccccc2F)C[C@@H]1C | i | -2 | -6 | -2.4 | 0.6
C[C@H](O)C#Cc1cnc2c(c1)C(=O)N([C@@H](C)CO)C[C@@H](C)[C@@H](CN(C)C(=O)c1ccccc1)O2 | i | 0 | -2 | -4.0 | -2.9
Nc1cc2c(cc1Br)-c1c(C(=O)O)cccc1C2O (stereo not given) | i | 1 | 5 | 1.6 | -1.2
O=C(Nc1ccc(S(=O)(=O)Nc2ncccn2)cc1)c1ccc(Br)cc1 | i | 12 | 8 | 1.0 | -1.2
O=C(N[C@H]1CC[C@H](CCn2cc(-c3ccc(F)cc3)nn2)O[C@H]1CO)c1cnccn1 | i | 3 | -2 | -1.3 | -0.2
O=C(C[C@@H]1CC[C@H](NS(=O)(=O)c2ccc(F)cc2)[C@H](CO)O1)N1CCN(c2ccccc2)CC1 | i | 0 | -2 | 0.8 | 1.8
CN(C)CC(=O)Nc1ccc2c(c1)[C@H]1C[C@H](CC(=O)N3CCc4ccccc4C3)O[C@@H](CO)[C@H]1O2 | i | 5 | 9 | -1.1 | -0.1
COc1ccc(-c2ccc([C@@H]3[C@@H](C#N)N(C(=O)NC(C)C)[C@H]3CO)cc2)cc1 | i | 3 | 1 | -1.3 | -2.2
OC[C@H]1[C@@H](c2ccc(C#CC3(O)CCCC3)cc2)[C@@H]2CN(Cc3ccccc3F)CCCCN12 | i | 7 | -25 | 14 | 11
OC[C@H]1O[C@@H](c2nc(-c3ccc4c(c3)CCO4)no2)[C@H](O)[C@@H](O)[C@H]1O | i | 15 | 7 | 4.3 | -6.8
Cc1ccc(S(=O)(=O)N[C@@H]2CC[C@H](CC(=O)NCCCN(C)C)O[C@@H]2CO)cc1 | i | 2 | 5 | -2.7 | -12
CCC(=O)Nc1ccc2c(c1)C(=O)N(C)C[C@@H](OC)[C@@H](C)CN(Cc1ccncc1)[C@H](C)CO2 | i | 1 | -3 | -1.2 | 2.1
CC(C)NC(=O)N(C)C[C@H]1Oc2ccc(NC(=O)CCC(F)(F)F)cc2C(=O)N([C@H](C)CO)C[C@H]1C | i | 6 | 1 | 1.9 | -4.0
CCOc1ccc(CCN2C(=S)N([C@@H](CC(C)C)CN3CCC[C@@H]3CN3C(=S)NC[C@@H]3Cc3ccc(O)cc3)C[C@@H]2CC(C)C)cc1 | i | 17 | 11 | 7.9 | 9.1
C[C@@H]1CN([C@H](C)CO)S(=O)(=O)c2ccc(C#Cc3ccncc3)cc2O[C@@H]1CN(C)C(=O)c1ccncc1 | i | -7 | -6 | -1.2 | -2.2
